# Hsc70 – small molecules displacing fluorescent ligand from Hsc70 – biochemical, fluorescence polarization, primary screen (AID 568). Hsc70 fluorescence polarization, probe displacement; higher % means a stronger effect; strong numbers were not always called active. one-dose displacement, % at 20 µM; IC50 in µM for titrated hits. 83,000 tested, under 10 active;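 active = displacement above 50% without optical interference and an IC50 on retest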;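 note: ATPase domain with a fluorescein-tagged ATP probe; 0% = vehicle and 100% = excess ADP; read after one hour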
# WNV NS2B-NS3 inh – WNV NS2B-NS3 proteinase inhibition; WNV NS2B-NS3 protease, fluorogenic substrate Ex360/Em465; active compounds read low; z-score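 (tested at a level between 10 and 100 µM)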; AID 577; P06935; 0.18% of 65,000 active;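 active = z-score at -3 or under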;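 note: score is relative to mean and spread of the compound wells of a plate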
# Target sequence (P06935 1371-1501 limits assumed): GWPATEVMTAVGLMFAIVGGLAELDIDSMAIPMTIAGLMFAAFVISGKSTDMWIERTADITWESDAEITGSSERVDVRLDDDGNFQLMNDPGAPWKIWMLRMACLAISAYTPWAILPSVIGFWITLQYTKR
# Target sequence (P06935 1502-1679 limits assumed): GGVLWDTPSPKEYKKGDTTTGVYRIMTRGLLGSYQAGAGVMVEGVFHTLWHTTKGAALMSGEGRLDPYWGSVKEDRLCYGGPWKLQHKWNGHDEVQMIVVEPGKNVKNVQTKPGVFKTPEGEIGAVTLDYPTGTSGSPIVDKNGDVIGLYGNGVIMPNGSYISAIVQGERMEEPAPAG
# MT1-MMP reporter – MT1-MMP gene expression reporter suppression – cell-based, luciferase reporter, luminescence (AID 618). calls from a first round at 10 µM; hits with a dose series show EC50 in µM. MT1-MMP promoter luciferase reporter cells, luminescence. 0.62% of 87,000 active;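 active = over half of the reporter light lost at 10 µM or EC50 under 50 µM; inactive = the rest and hits that failed the dose series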;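 note: actives suppress MT1-MMP promoter-driven transcription so potencies describe inhibitors; HT1080 fibrosarcoma cells; overnight exposure; toxic or luciferase-blocking compounds were not removed from the actives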
# * hit, by the source's call; i = inactive; . = not tested or not shown. The list is partial, so the mix of outcomes need not match the whole.
Structure	Hsc70	WNV NS2B-NS3 inh	MT1-MMP reporter
COC(=O)CSCc1nc2ccccc2[nH]c1=O	-30%	-0.16	i
CC1(C)CC(=O)C(C=NCCc2ccccn2)=C(O)C1	7.6%	-0.82	i
CCCCOC(=O)C1C2C=C[C@]3(CN(C(C)c4ccc(OC)cc4)C(=O)[C@H]13)O2 (stereo partly specified)	0.9%	0.6	i
COc1ccc2nc(NC(=O)c3cc(S(=O)(=O)N4CCOCC4)ccc3C)sc2c1	1.5%	.	i
Cc1cccc(NC(=O)N(Cc2nc3ccccc3c(=O)[nH]2)C2CCCC2)c1	11%	1.1	i
C=C(c1ccc(OCCO)cc1)c1ccc(OCCO)cc1	2.8%	-0.11	i
CC(=O)Nc1ccc(S(=O)(=O)N2CCN(c3ccccn3)CC2)cc1	2.2%	.	i
CC1=CCP(=O)(c2ccccc2)C1 (stereo unspecified)	1.2%	-0.59	i
O=C(CNC(=O)c1ccc(Cl)cc1Cl)NCC(=O)Nc1ccccc1N1CCOCC1	-3.9%	-1.5	i
Cc1ccc(C)c2nc(N3CCCC3)c(C#N)cc12	-8.3%	-0.87	i
Cc1ccccc1-c1nnc(SCc2ccc(F)cc2)o1	0.3%	0.28	i
CCOc1cc(CNCC2CCCO2)cc(Br)c1OCC(N)=O (stereo unspecified)	1.2%	-0.95	i
Cc1cc(C)c2[nH]c(=O)c(CN(C(=O)C3CCCO3)C3CCCC3)cc2c1 (stereo unspecified)	4.1%	2.2	i
O=C1NC(c2ccccc2)C(C(=O)c2cccs2)=C1O (stereo unspecified)	1.4%	-0.68	i
O=c1oc2ccccc2n1Cn1c(=O)oc2ccccc21	-0.7%	0.46	i
Cc1ccc(C)c(Cn2c(=O)n(CCCC(=O)NCc3ccco3)c(=O)c3ccccc32)c1	2.1%	0.79	i
CC(C)NC(=O)NC(=O)CSc1nnc(COc2ccccc2F)n1C(C)C1CC2CCC1C2 (stereo unspecified)	-5.7%	.	i
O=C(c1ccccc1)N1CCN(c2ccc(NCc3ccc4c(c3)OCO4)cc2)CC1	2.8%	0.01	i
CC1CCC2(CC1)SCC(=O)N2c1ccccc1 (stereo unspecified)	-6.1%	.	i
OCCCc1nc2n(n1)C(c1ccccc1)C=C(c1ccccc1)N2 (stereo unspecified)	6.3%	2	i
Cc1noc(NS(=O)(=O)c2ccc(NC(=O)CSc3nc4c(cc3C#N)CCCC4)cc2)c1C	7.3%	-0.57	i
CCC(C)NC(=O)CC(c1ccc(OC)cc1)n1cccc1 (stereo unspecified)	0.5%	-0.69	i
Cc1nnc(NC(=O)CSc2nnc(CNC(=O)c3ccccc3)n2-c2ccccc2)s1	1.6%	0.39	i
CCC(CC)C(=O)NCCc1ccc(S(N)(=O)=O)cc1	6.1%	-0.07	i
C1=C(c2ccccc2)N2CCN=C2S1	1.6%	.	i

# Entries above that have an aryl methoxy group (three):
Structure	Hsc70	WNV NS2B-NS3 inh	MT1-MMP reporter
CCCCOC(=O)C1C2C=C[C@]3(CN(C(C)c4ccc(OC)cc4)C(=O)[C@H]13)O2 (stereo partly specified)	0.9%	0.6	i
COc1ccc2nc(NC(=O)c3cc(S(=O)(=O)N4CCOCC4)ccc3C)sc2c1	1.5%	.	i
CCC(C)NC(=O)CC(c1ccc(OC)cc1)n1cccc1 (stereo unspecified)	0.5%	-0.69	i

# Following part:
Structure	Hsc70	WNV NS2B-NS3 inh	MT1-MMP reporter
O=C(NNC(=S)NC(=O)c1ccccc1[N+](=O)[O-])c1ccccc1	1.5%	.	i
CCC(Sc1ccc(C(=O)O)cc1)C(=O)O (stereo unspecified)	-4.1%	0.1	i
COc1ccc(N2C(=O)[C@@H]3Cc4ccccc4CN3C2=O)cc1	-7.1%	-0.81	i
COc1ccccc1-c1cc(C(F)(F)F)nc(N2CCN(c3ccc(F)cc3)CC2)n1	1.5%	-0.23	i
COc1cc2c(cc1NC(=S)Nc1cccc(C(F)(F)F)c1)oc1ccccc12	-0.2%	.	i
CCOc1ccc(C(=O)Nn2cnnc2)cc1	6.6%	-1.4	i
N#CC1=C(N)OC2=C(C(=O)CCC2)C1c1ccc(OC(=O)N2CCOCC2)cc1 (stereo unspecified)	-9.1%	-0.46	i
COc1ccc(C2N=C(N)N=C(N)N2c2ccccc2)cc1OC (stereo unspecified)	-1.6%	0.68	i
O=C(OCn1nnc2ccccc2c1=O)C1COc2ccccc2O1 (stereo unspecified)	0.0%	0.17	i
O=C(/C=C/c1ccc(Br)o1)OCc1ccccc1	-0.4%	.	i
Cc1cc(SCC(=O)NC(=O)NCc2ccco2)nc2c(C)cccc12	-7.3%	1.7	i
N#Cc1nc(-c2ccco2)oc1N1CCC(C(N)=O)CC1	-7.2%	-0.18	i
Cn1ncc2c(Nc3cccc(C(=O)O)c3)ncnc21	1.2%	.	i
COCNc1nc(OCC#N)nc(N(C)C)n1	9.9%	-0.56	i
CC(C(=O)OCn1nnc2ccccc2c1=O)N1C(=O)c2ccccc2C1=O (stereo unspecified)	-5.8%	0.06	i
COc1ccc(NS(=O)(=O)c2ccc(N)c(C(=O)O)c2)cc1	-3.1%	-1.1	i
CN(CC(=O)N1CC=C(c2ccccc2)CC1)S(=O)(=O)c1cnc[nH]1	2.6%	1.6	i
COc1cccc(NC(=O)CCCOc2cc(=O)n(C)c3ccccc23)c1	4.5%	.	i
COc1ccc(OC)c(NS(=O)(=O)Cc2ccccc2)c1	5.9%	-0.38	i
Cc1cc(C)c2nc3c(c(C(=O)O)c2c1)CCC3	-0.5%	1	i
O=S(=O)(c1ccc2ccccc2c1)N(CC(O)COCc1ccco1)c1ccccc1 (stereo unspecified)	4.7%	.	i
Cc1ccc2[nH]c3c(c2c1)CN(C(=O)CN(C)CC1OCCO1)CC3	7.2%	.	i
O=C1NCCCc2nc(Oc3ccccc3)sc21	21%	0.91	i
COC(=O)c1ccc(NC(=O)Nc2ccc(C)cc2)cc1	-1.6%	.	i
COc1ccc2c(C)cc(N3CCN(c4ccc(F)cc4)CC3)nc2c1	-2.1%	.	i

# Additional results.
# Results follow in this order: Hsc70, WNV NS2B-NS3 inh, MT1-MMP reporter
Cc1ccc(S(=O)(=O)NCCn2c(C)cc3ccccc32)cc1
    16%, -1.3, i
CC(=O)Nc1ccc(S(=O)(=O)Nc2cccc(N(C)S(C)(=O)=O)c2)cc1
    -0.7%, -0.12, i
CN(C(=O)c1ccc(S(=O)(=O)N2CCCC2)cc1)C1CCCCC1
    -6.1%, ., i
O=C(O)c1ccc(COc2ccc(CO)cc2Cl)cc1
    -0.1%, -1.1, i
COC(=O)C(NC(C)=O)(Nc1nc2c(s1)CCCC2)C(F)(F)F (stereo unspecified)
    -5.7%, 0.35, i
CC(C)(C)c1ccc(C(=O)Nc2ccc(N3CCOCC3)cc2)cc1
    6.3%, ., i
Cc1c(NC(=O)CC(O)(C(F)(F)F)C(F)(F)F)c(=O)n(-c2ccccc2)n1C
    4.6%, 0.45, i
O=C(NCCc1ccccc1)c1noc2c1CCc1ccccc1-2
    2.4%, -0.25, i
CCC(=O)Nc1ccc(-c2nn3c(C)nnc3s2)cc1
    -1.1%, 0.0082, i
Cc1ccc(S(=O)(=O)N2CCCC(C(=O)NCCC3=CCCCC3)C2)cc1 (stereo unspecified)
    2.2%, ., i
COc1ccc(CCNC(=O)NC23CC4CC(CC(C4)C2)C3)cc1OC
    -3.1%, ., i
CC(C)C1N=C(c2ccc3c(c2)OCO3)CC(c2ccccc2O)N1 (stereo unspecified)
    -3.1%, ., i
CCCc1nnc(NC(=O)CCC(=O)N2CCN(CCOc3ccc(C)cc3)CC2)s1
    7.4%, 0.08, i
C=CCOC(=O)C1=C(C)NC(SCC(=O)OCC)=C(C#N)C1c1ccc(C)cc1 (stereo unspecified)
    -0.1%, ., i
COc1cc2cc(C(c3nnnn3C(C)(C)C)N3CCc4ccccc43)c(=O)[nH]c2cc1OC (stereo unspecified)
    -1.4%, 0.44, i
N#CC1=C(N)Oc2n[nH]c(-c3ccc(F)cc3)c2C1c1ccncc1 (stereo unspecified)
    -7.0%, 0.3, i
CC1(C)C(C=C(Cl)Cl)C1C(=O)N1CCN(c2ccccc2)CC1 (stereo unspecified)
    -3.4%, -0.49, i
COc1ccc2cc3cc(C(=O)NCc4ccc5c(c4)OCO5)oc3nc2c1
    -5.1%, -0.52, i
CC(Sc1nc(NCc2ccccc2)nc(N2CCOCC2)n1)C(=O)Nc1ccccc1 (stereo unspecified)
    2.7%, -0.34, i
O=C(CSc1nc2ccccc2[nH]1)c1ccc2c(c1)OCO2
    0.1%, 0.74, i
O=C(O)CN1C(=O)CC(Cc2ccc(Cl)cc2)C1=O (stereo unspecified)
    -8.4%, 1.1, i
Cc1cccc(NC(=O)CSc2nnc(-c3ccco3)c(-c3ccco3)n2)c1C
    1.7%, ., i
CCOc1ccccc1NC(=O)CN(Cc1ccccc1)S(C)(=O)=O
    -2.2%, 0.45, i
COC(=O)c1cn(NC(=O)C2COc3ccccc3O2)c(=O)c2ccccc12 (stereo unspecified)
    1.3%, 0.75, i
COC(=O)CSc1nnc(-c2ccoc2C)n1-c1ccc(C)cc1
    -1.8%, -1.1, i
CNC(=O)c1cc2cccc(OC)c2oc1=O
    -6.0%, -0.41, i
CNC(=O)c1cc2cc(OC)ccc2oc1=N
    -5.3%, 1.8, i
O=C(c1ccco1)N1CCC(c2nc(-c3ccc(F)cc3)no2)CC1
    -2.9%, 1.5, i
COC(=O)C(C)(C(=O)OC)c1ccccc1[N+](=O)[O-]
    6.2%, ., i
COc1ccc(C(=O)Nn2c(C)ccc2C)cc1OC
    3.3%, -0.35, i

# Reformatted: results already given.
mol: COC(=O)CSc1nnc(-c2ccoc2C)n1-c1ccc(C)cc1
  Hsc70: -1.8%
  WNV NS2B-NS3 inh: -1.1
  MT1-MMP reporter: i

mol: CNC(=O)c1cc2cc(OC)ccc2oc1=N
  Hsc70: -5.3%
  WNV NS2B-NS3 inh: 1.8
  MT1-MMP reporter: i

mol: CC1(C)C(C=C(Cl)Cl)C1C(=O)N1CCN(c2ccccc2)CC1 (stereo unspecified)
  Hsc70: -3.4%
  WNV NS2B-NS3 inh: -0.49
  MT1-MMP reporter: i

mol: O=C(NCCc1ccccc1)c1noc2c1CCc1ccccc1-2
  Hsc70: 2.4%
  WNV NS2B-NS3 inh: -0.25
  MT1-MMP reporter: i

# (more compounds)
# Results follow in this order: Hsc70, WNV NS2B-NS3 inh, MT1-MMP reporter
COc1ccc(-c2noc(CCC(=O)Nc3cccnc3)n2)cc1OC
    7.0%, 0.1, i
CCOc1ccc(N(CC(=O)NCc2ccccc2)S(=O)(=O)c2c(C)noc2C)cc1
    0.3%, 0.01, i
CCCc1c(C)c2ccccc2[nH]c1=O
    4.5%, -2.9, i
CC(C)NC(=O)c1sc2nc(-c3cccs3)cc(-c3cccs3)c2c1N
    -7.2%, ., i
COc1ccc2c(c1)CCCC21NC(=O)NC1=O (stereo unspecified)
    0.2%, -0.38, i
O=C1Nc2ccccc2C(O)(C(=O)NCc2ccco2)N1c1ccc(Cl)c(Cl)c1 (stereo unspecified)
    -1.6%, 1.1, i
CCOc1ccc(CN2C(=O)c3ccccc3C2C(=O)NCc2cccnc2)cc1 (stereo unspecified)
    -1.2%, -0.39, i
Cc1cc(C(=O)OCC(=O)N2c3ccccc3CC2C)c(C)o1 (stereo unspecified)
    -1.1%, -0.21, i
CC(=O)NC(CCS(C)(=O)=O)C(=O)Nc1c(F)cccc1F (stereo unspecified)
    3.3%, 1.5, i
NC(=O)c1c(NC(=O)CSc2nnc(Cc3ccccc3)n2Cc2ccco2)sc2c1CCC2
    0.9%, -1.4, i
COc1cc2[nH]c(=O)n(CCCC(=O)N3CC=C(c4ccccc4)CC3)c(=O)c2cc1OC
    -0.7%, -1.2, i
Cc1cc(C(=O)COC(=O)C2=NNC(=O)CC2)c(C)n1-c1ccc(OC(F)F)cc1
    -2.7%, ., i
O=C(c1cc2cc(Cl)ccc2oc1=O)N1CCCC1
    5.0%, -0.12, i
O=C(Nc1ccccc1)N1CCN(Cc2ccc3c(c2)OCO3)CC1
    -2.9%, 0.79, i
COc1cc2c(cc1OC)C(COc1ccc(F)cc1)N(C(=O)c1ccco1)CC2 (stereo unspecified)
    0.9%, -0.2, i
COc1ccc(/C(O)=C2\C(=O)C(=O)N(CCN(C)C)C2c2cc(OC)c(OC)c(OC)c2)c(C)c1 (stereo unspecified)
    7.2%, -0.72, i
Fc1cccc(-n2c(-c3ccco3)nc3nc4ccccc4nc32)c1
    -8.8%, 0.16, i
CCC(=O)Nc1ccc(S(=O)(=O)Nc2cccc(C)c2)cc1OC
    -1.2%, -0.79, i
Cc1cc(C)n(Cc2cc(C)c(Cn3nc(C)cc3C)cc2C)n1
    2.3%, 0.56, i
COc1ccc(CCNC(=O)CSc2nc(O)c(C(C)C)c(=O)[nH]2)cc1OC
    -2.6%, ., i
CCOC(=O)CSc1nnc(CNC(=O)c2ccc(OC)cc2)n1C1CCCCC1
    -3.0%, -1.3, i
CCCN(CCO)CCCc1ccccc1
    -3.3%, ., i
COCCn1c(C)cc(C(=O)CSc2nc3ccccc3o2)c1C
    5.9%, 0.96, i
CN=C1SC(CC(=O)Nc2ccccc2F)C(=O)N1C (stereo unspecified)
    1.8%, 0.98, i
